Vaccinia Venus: qHTS for Stage-Specific Inhibitors of Vaccinia Orthopoxvirus: Venus Reporter Primary qHTS | Vaccinia virus Venus reporter expression, fluorescence | Potency, µM (doses to about 36.5 µM), without a hit: at the top dose activity change, negative = inhibition, usual class: inhibitors | hit rate 0.46% among 330,000 | AID 720580, 2013; active means well fitted inhibition curve with a large enough effect; inconclusive means small, poorly fitted or top-dose-only effect; inactive means no such curve, though single readings can be large or run the other way; tested in A549 cells; also: nearly all actives have a fitted effect of over 30% in size; inactives centre near -10
Vaccinia mCherry: qHTS for Stage-Specific Inhibitors of Vaccinia Orthopoxvirus: mCherry Reporter Primary qHTS; Potency, µM (titrated, usually from 36.5 µM), without a hit: at the highest dose activity change, negative = inhibition, hits mostly inhibitors; hit rate 0.63% among 310,000; Vaccinia virus mCherry reporter infection, fluorescence; about a quarter of the inactives have no number; active = well fitted inhibition curve with a large enough effect; inconclusive = small, poorly fitted or top-dose-only effect; inactive = no such curve, though single readings can be large or run the other way; tested in A549 cells; also: nearly all actives have a fitted effect of over 35% in size; inactives centre near -10
Starred values were filed as active, the others as inactive; i = inactive; ? = inconclusive; . = not tested or not shown; [ ] = remark or other dose. % is scaled to controls: 0 for no effect and ±100 for the full control effect; potency is read from the fitted curve at half-maximal effect.

Order of results: Vaccinia Venus | Vaccinia mCherry
> COc1ccc(NC(=O)CCCNC(=O)Cn2cnc3sc4c(c3c2=O)CCCC4)c(OC)c1
    -7.6% | -0.4%
> NCCCC[C@@H]1NC(=O)[C@H](CCC(=O)O)NC(=O)c2cc([N+](=O)[O-])cc(I)c2OCC[C@@H](C(N)=O)NC1=O
    -5.4% | -7.5%
> CCC(=O)Nc1sc2c(c1C(=O)Nc1ccc(Br)cc1)CCCCC2
    -20.8% | -10.5%
> CCN(CC(=O)Nc1c(F)cccc1F)C(=O)c1ccc(N2CCCCC2)c([N+](=O)[O-])c1
    -25.3% | -11.4%
> Cc1cccc(NC(=O)c2ccc(CN3CC(=O)N4CCCCC4C3=O)cc2)c1C (stereo not given)
    -14.8% | -13.4%
> CCCCOc1ccc(C(=O)N/C(=C/C=C/c2ccccc2)C(=O)NCCCO)cc1
    -2.9% | -0.7%
> CCc1ccc(NC(=O)C2CCN(S(=O)(=O)c3c(C)noc3/C=C\c3ccc(OC)cc3)CC2)cc1
    -15.9% | -9.7%
> COc1ncc(C2=CC(=O)CC(C)(C)C2)cn1
    -4.0% | -22.6%
> CC(C)(C)c1nnc(NC(=O)c2cccnc2)s1
    -11.1% | i
> Cc1nn(C(C)C)c(C)c1[C@@H]1C[C@H]2CN(Cc3cccc(Cl)c3)C(=O)[C@]23CCCN13
    -10.4% | ?
> O=C(NC1CCCCC1)N1CCN(c2ccc(Cl)cc2)CC1
    -10.0% | -21.7%
> Cc1cccc(NC(=O)N2CCc3ccccc3C2)c1C
    -3.7% | i
> CCOC(=O)c1ccccc1C(=O)N1CCOCCOCCOCC1
    6.9% | -10.9%
> Cc1cc(/C=C(\C#N)C(N)=O)c(C)n1-c1ccc(N2CCOCC2)c([N+](=O)[O-])c1
    -15.5% | ?
> Cc1ccc(-c2cn(-c3ccccc3)c3[n+]2CCCS3)cc1
    ? | .
> CCC(=O)NC1=C(NC(C)c2ccccc2)C(=O)c2ccccc2C1=O (stereo not given)
    4.6% | 9.8%
> Cn1nnnc1SCC(=O)Nc1cc(C(F)(F)F)ccc1N1CCOCC1
    -7.7% | i
> O=C(O)/C=C/C(=O)Nc1ccc2c(c1)NC(=O)CO2
    -7.1% | i
> OCCN1CCN(CCCc2c3c(cc4c2CCC4)CCC3)CC1
    -18.8% | i
> CCOc1ccccc1NC(=O)c1sc2nc3c(cc2c1N)CN(Cc1ccccc1)CC3
    ? | ?
> S=c1ncc2[nH]c(=S)[nH]c2[nH]1
    -5.8% | i
> O=C(C1COc2ccccc2O1)N1CCc2ccccc21 (stereo not given)
    -18.2% | -8.2%
> Cn1c(Cn2c(=O)sc3ccccc32)nnc1SCC(=O)Nc1ccc(F)cc1
    2.3% | -2.4%
> CCn1c(Cn2nnc(-c3ccccc3)n2)nnc1SCC(=O)Nc1cccc(C(C)=O)c1
    -3.5% | -21.7%
> O=C(COc1ccc(S(=O)(=O)N2CCCCC2)cc1)N1CCCC1
    5.7% | -10.5%
> Cc1ccc(-c2cn3nc(C)c(C)nc3n2)cc1
    -5.3% | i
> CCOC1=C2CN(S(=O)(=O)c3ccc(C)cc3)[C@H](c3cccc(Cl)c3)C[C@H]2[C@H]2C(=O)N(c3ccccc3)C(=O)[C@H]2C1
    -4.8% | 24.6%
> O=C(COC(=O)CCc1ccccc1)Nc1cc(S(=O)(=O)N2CCOCC2)ccc1N1CCCC1
    -1.6% | 0.0%
> CC(C)NC(=O)C1C(c2ccccc2)=Nc2ccccc2N1C(=O)c1ccc(C(F)(F)F)cc1 (stereo not given)
    -12.0% | -19.7%
> CCCCSC1=N/C(=C/c2ccsc2)C(=O)N1c1ccccc1
    -1.8% | i
> COc1ccc(CCNC(=O)Cn2c(=O)oc3ccccc32)cc1OC
    ? | .
> Cn1c(=O)oc2cc(S(=O)(=O)NC(Cc3ccccc3)C(=O)Nc3ccc(F)c(Cl)c3)ccc21 (stereo not given)
    -1.9% | -6.6%
> Cc1ccc(C(=O)Nc2cccnc2)cc1S(=O)(=O)N1CCCC1
    -10.0% | i
> CCOC(=O)C(NC=O)(NC(C)(C)C)C(=O)OCC
    -1.4% | .
> CCc1cccc(NC(=O)Nc2csc3c2CCCC3)c1
    -5.4% | i
> Fc1ccccc1-c1nc(NCCCN2CCOCC2)c2ccccc2n1
    -9.5% | i
> Cc1cc(C)n(/C(=C/N(C)C)C(=O)c2ccccc2)n1
    -4.2% | i
> COc1ccc2c(c1)C1=NN(/C(C)=C/C(C)=O)C(c3cccc(F)c3)C1CC2 (stereo not given)
    10.8% | -21.2%
> O=C(CCCCn1c(=O)c2ccccc2n(CC(=O)Nc2cccc(F)c2)c1=O)NCCc1ccccc1
    1.6% | -14.1%
> CCN(C(=O)COc1cccc2cccnc12)C1CCS(=O)(=O)C1 (stereo not given)
    -2.2% | -1.7%
> C#CCNC(=O)C[C@@H]1C[C@@]2(C(=O)OCC)CCC=C2N(Cc2ccc3c(c2)OCO3)C1=O
    6.3% | 2.5%
> CC12C=CC(=O)C=C1CCC1C2C(O)CC2(C)C1CCC2(O)C(=O)CO (stereo not given)
    -12.0% | -4.5%
> CCOC(=O)CSc1nc(-c2ccccc2)cc(C(F)(F)F)c1C#N
    2.7% | -0.2%
> C=CCC1c2cccc(C(=O)O)c2C(=O)N1c1cccc(C)c1 (stereo not given)
    -8.3% | -12.9%
> O=C(/C=C/c1ccco1)N1CCN(S(=O)(=O)c2ccc(F)c(F)c2F)CC1
    -26.4% | -16.9%
> CC(C)C[C@@H](CN1CCC[C@H]1CN1C(=O)C(=O)NC[C@@H]1Cc1ccc(O)cc1)N1C[C@H](Cc2ccc(O)cc2)N(CC2CCCCCC2)C(=O)C1=O
    1.1% | 13.9%
> Cc1ccnc(NS(=O)(=O)c2ccc(NC(=O)/C=C/c3ccccc3)cc2)n1
    -4.7% | i
> COc1ccc(-n2sc3ccccc3c2=O)cc1
    ? | -26.1%
> CCn1cc(/C=C(\NC(=O)c2ccccc2OC)C(=O)N2CCOCC2)c2ccccc21
    -16.4% | -22.1%
> CCOC(=O)c1cc(-c2ccc(F)cc2)n(CCC(=O)NCc2ccccc2OC)c1C
    -8.7% | i
> CCn1c(=O)c(C(=O)NNS(=O)(=O)c2ccc(C)cc2)c(O)c2ccccc21
    -5.2% | -13.5%
> COc1ccc(NC(=O)CNc2cc(S(=O)(=O)N3CCOCC3)ccc2NCC2CCCO2)cc1 (stereo not given)
    -6.2% | ?
> CCc1cc(=O)oc2cc(OCC(N)=O)c(Cl)cc12
    12.0% | 2.4%
> CCc1ccc(NC(=O)c2sc3nc(C)c(Cl)c(C)c3c2NC(=O)c2ccccc2OC)cc1
    -25.5% | -18.4%
> CCc1ccc(C(=O)CCC2CCCCC2=O)cc1 (stereo not given)
    0.8% | -0.8%
> COc1cc(OC)cc(-n2c(=O)c3sccc3n(Cc3ccc(F)cc3)c2=O)c1
    -4.8% | -5.2%
> CC(=O)Nc1ccc(NC(=O)CCCCCn2nnc3ccccc3c2=O)cc1
    -14.5% | -26.4%
> O=C(OCc1ccc(F)cc1)c1ccc2ccccc2n1
    -14.8% | -9.9%
> CNc1nc(Cl)nc2ncn(C)c12
    -4.4% | -9.6%
> CCc1ccc(OCCn2cccn2)cc1
    -6.9% | i

Next compounds follow.
Order of results: Vaccinia Venus | Vaccinia mCherry
> Cc1cccc(NC(=O)CN2CCN(C(=O)c3ccc(-c4nc5ccccc5s4)o3)CC2)c1C
    4.0% | 4.4%
> Cc1cc(C)nc(-n2nc(C)c3c2N(Cc2ccccc2F)C(=O)CC3c2ccc(Cl)cc2)n1 (stereo not given)
    -2.9% | -5.1%
> CCC1CN(CCNC(=O)c2cccnc2C)Cc2cc(OC)ccc2O1 (stereo not given)
    -11.7% | -10.4%
> COCCNC(=O)Cn1c(=O)n(CCC(=O)NCCc2ccccc2)c(=O)c2ccccc21
    -4.4% | -6.2%
> Cc1ccc(Oc2ncccc2CO)cc1
    -10.4% | -6.8%
> CCOc1ccc(N2CC(C(=O)NCCc3c[nH]c4ccc(OC)cc34)CC2=O)cc1 (stereo not given)
    -13.4% | -10.0%
> COc1ccc(C(=O)NCc2cccnc2)cc1C(=O)NCc1cccnc1
    -7.3% | i
> CCCCC(c1nnnn1CCOC)N1CCN(C(=O)c2ccco2)CC1 (stereo not given)
    -5.3% | -0.1%
> CC(=O)c1ccc(-c2ccc(C(=O)NCC(c3ccc(F)cc3)N3CCOCC3)o2)cc1 (stereo not given)
    -13.0% | -16.6%
> Cc1c(C(=O)OCCOc2ccccc2)[nH]c2c1C(=O)CC(c1ccc(C(C)(C)C)cc1)C2 (stereo not given)
    -15.8% | -8.0%
> CC(C)N1CCC(N2CCN(Cc3ccc(C#CC(C)(C)O)s3)CC2CCO)CC1 (stereo not given)
    -19.8% | i
> Cc1ccc(-c2nn(-c3ccccc3)cc2/C=N/NC(=O)c2ccc(Br)o2)cc1
    -14.6% | .
> COc1ccc(C(CC(=O)O)NC(=O)Cc2ccccc2)cc1OC (stereo not given)
    -6.5% | -8.9%
> Cc1ccc2c3c(cccc13)-c1ccccc1C2=O
    -8.8% | -23.5%
> COc1ccc(C2(O)CCN(Cc3nnnn3Cc3ccc(F)cc3)CC2)cc1
    -15.9% | -22.0%
> COc1ccccc1C1CC(=O)Oc2c(C(C)C)ccc(C)c21 (stereo not given)
    -0.2% | i
> Cc1cccc(-n2c(-c3ccncc3)n[nH]c2=S)c1
    -2.8% | .
> COC(=O)[C@]12CCCCC=C1N(Cc1ccccc1)C(=O)[C@H](CC(=O)NCC1CCCCC1)C2
    1.0% | -13.5%
> Cc1sc(NC(=O)CCC(=O)O)c(C(N)=O)c1-c1ccccc1
    -0.1% | -14.0%
> O=C(O)COc1ccc(Cl)cc1C1CCCCC1
    -7.4% | -14.6%
> CN1CCN(c2ncnc3c2ncn3[C@H]2CN(Cc3ccc(-c4ccccc4)cc3)C[C@@H](CO)O2)CC1
    ? | -20.9%
> Cc1c(CN2CCCC(C(=O)c3cccc(OC(C)C)c3)C2)c(=O)n(-c2ccccc2)n1C (stereo not given)
    -4.1% | 4.0%
> [O-][n+]1ccc(OCc2ccccc2)cc1
    -4.7% | i
> Cc1ccc(C)n1-c1nn(S(=O)(=O)c2ccccc2)c2cccc(F)c12
    5.5% | -10.0%
> COc1ccc(N2CC(O)=C(c3nc(-c4ccccc4)cs3)C2=N)cc1
    -5.7% | -5.6%
> COc1cc(C(=O)Nc2nc(-c3cccs3)cs2)cc(OC)c1OC
    -29.1% | ?
> O=C(Nc1ccc(Cl)cc1)N[C@@H]1CC[C@H](CCNS(=O)(=O)c2ccccc2F)O[C@@H]1CO
    -17.4% | -4.5%
> CCN(CC)C(=O)CSc1nc2sc3c(c2c(=O)n1CCOC)CCC3
    2.0% | -9.4%
> N/C(Cc1ccc(Cl)c(Cl)c1)=N\OC(=O)c1ccc(Br)o1
    -12.1%[7.34 µM] | i[7.34 µM]
> Cc1ccc(S(=O)(=O)N2CCCC(C(=O)Nc3ccc(C(=O)O)cc3)C2)cc1Cl (stereo not given)
    -0.7% | i
> CN(C)c1ncnc2c1nnn2C1OC(CO)C(O)C1O (stereo not given)
    ? | ?
> COc1ccc(-c2ccnc(-n3ncc(C(=O)NC(C)(C)CO)c3C3CC3)n2)cc1F
    -9.2% | -14.8%
> Cc1ncc(Cc2ccccc2)c(C2CCN(S(=O)(=O)C[C@]34CC[C@H](CC3=O)C4(C)C)CC2)n1
    -19.0% | -19.4%
> COc1cc(C(=O)Nc2ccncc2)cc(OC)c1OC
    -15.4% | i
> Nc1nonc1-c1noc(N2CCCCC2)n1
    -6.2% | .
> CCc1cccc(OCCn2nc(C(=O)O)c3ccccc3c2=O)c1
    -17.5% | -3.2%
> O=C(Nc1ccc(C(F)(F)F)cc1)OC1CN2CCC1CC2 (stereo not given)
    -10.3%[7.34 µM] | -9.8%[7.34 µM]
> CCN(CC)S(=O)(=O)c1ccc2c(c1)N(CC(=O)NCCc1ccc(S(N)(=O)=O)cc1)C(=O)CO2
    -4.0% | i
> O=C(Nc1c[nH]c(=O)[nH]c1=O)OCc1ccccc1
    -3.0% | ?
> CCOC(=O)c1c(CN(C)C)n(-c2ccccc2)c2cc(Br)c(O)cc12
    -12.4% | -4.6%
> CC1CCCCC1NC(=O)CSCC(=O)O (stereo not given)
    -5.6% | i
> Cc1cc(C)cc(NC(=O)C2CCCN2/C=C/C(=O)C(F)(F)F)c1 (stereo not given)
    -5.9% | -1.0%
> CCC12CN3CCN(CC(C3)/C1=N\NC(=O)Nc1ccccc1)C2
    6.0% | -4.8%
> COc1ccccc1CCNC(=O)c1cccc(S(=O)(=O)NCc2ccccc2)c1
    -4.6% | i
> Oc1ccccc1-c1cc(-c2ccc3c(c2)OCCO3)n[nH]1
    -25.4% | -22.5%
> CC1=C(C(=O)N2CCOCC2)CC(CC(=O)NCCc2ccccn2)C(=O)N1Cc1ccc(F)cc1 (stereo not given)
    4.7% | -4.5%
> C=C1CCC[C@]2(C)C[C@H]3OC(=O)C(CNC(C)(CO)CO)[C@H]3CC12 (stereo not given in full)
    ? | 7.94µM*
